A647 fluor: compound autofluorescence in A647 spectral region | Compound fluorescence, A647 channel (570/671 nm), Tris buffer | max dye-equivalent concentration, M | 59,000 tested, under 10 active; active means above 1 µM dye equivalent; inconclusive means 0.1 to 1 µM; inactive means 0.1 µM or less;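 also: values scaled relative to a standard on each plate; highest value over a series up to 38 µM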
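Compound fluorescence was measured in 100 mM Tris buffer, pH 8.0, after 15 min at room temperature, using 570 nm excitation and 671 nm emission filters. Signal was normalized to a per-plate Alexa 647 standard curve and expressed as dye-equivalent concentration at each compound concentration.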
Resorufin autofl: resorufin region autofluorescence; Compound fluorescence, resorufin region 547/598 nm, buffer; hits give high values; max dye-equivalent concentration, M; actives 0.04% (n = 59,000); AID 588; active = above 10 nM dye equivalent; inconclusive = 1 to 10 nM; inactive = 1 nM or less; a few of its hits are not listed in these tables; also: highest value over a series up to 38 µM
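Intrinsic fluorescence profiled in the resorufin window (ex 547 nm, em 598 nm) after 15 min at room temperature in pH 8.0 Tris buffer (100 mM); responses normalized against a six-point resorufin standard series as dye-equivalent concentration.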
TSHR ag: agonists of human thyroid stimulating hormone receptor | HEK293-CNG-TSHR cells (CNG channel as cAMP sensor), membrane potential dye, cAMP | Potency, µM (doses to about 57.1 µM), for the others: top-dose activation, actives largely listed as activators | actives 0.48% (n = 73,000); active = well fitted activation curve of enough size with the parental cells flat; inconclusive = any curve in the parental cells; inactive = parental cells flat and receptor cells flat or falling; also: potency is read from the fitted curve at half-maximal effect; % of control where 0% means no effect; weak receptor curves with flat parental cells got no call and are not listed
Target sequence (P16473 whole entry, looked up): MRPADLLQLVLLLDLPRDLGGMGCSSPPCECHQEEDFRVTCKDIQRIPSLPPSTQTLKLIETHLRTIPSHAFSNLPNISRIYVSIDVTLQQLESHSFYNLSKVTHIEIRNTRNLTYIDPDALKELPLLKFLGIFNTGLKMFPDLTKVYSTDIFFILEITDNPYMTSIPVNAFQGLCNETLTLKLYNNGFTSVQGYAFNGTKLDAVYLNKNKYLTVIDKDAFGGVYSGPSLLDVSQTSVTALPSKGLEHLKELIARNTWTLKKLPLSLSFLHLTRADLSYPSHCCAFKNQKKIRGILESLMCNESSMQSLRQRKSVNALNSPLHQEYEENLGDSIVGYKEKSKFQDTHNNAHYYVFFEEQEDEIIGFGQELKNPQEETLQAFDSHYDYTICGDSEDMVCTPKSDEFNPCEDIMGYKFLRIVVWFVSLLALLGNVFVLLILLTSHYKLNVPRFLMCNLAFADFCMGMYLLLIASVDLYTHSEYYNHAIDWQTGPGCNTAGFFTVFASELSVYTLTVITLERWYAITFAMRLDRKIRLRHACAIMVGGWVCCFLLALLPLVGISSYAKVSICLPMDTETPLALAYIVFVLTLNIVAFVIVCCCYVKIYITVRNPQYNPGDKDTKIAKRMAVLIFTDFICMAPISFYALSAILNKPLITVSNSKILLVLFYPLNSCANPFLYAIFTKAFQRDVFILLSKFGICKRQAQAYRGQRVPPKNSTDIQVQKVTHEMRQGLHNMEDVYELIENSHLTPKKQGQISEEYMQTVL
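cAMP rise detected as CNG-channel membrane depolarization by fluorescent dye (emission 590 nm), 30 min after compound, following 60 min dye loading containing 100 uM RO 20-1724 at room temperature. Cells: TSHR/CNG HEK 293, with parental CNG HEK 293 as control.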
AID923: qHTS Assay for Allosteric/Competitive Inhibitors of Caspase-1: Spectroscopic Profiling in AFC Spectral Region; actives 1.1% (n = 75,000); compound fluorescence, AFC spectral region (405/520 nm); almost no hit is shown here; Potency, µM (series often up to 57.5 µM), inactives show at the top dose fluorescence increase, usual class: activators; active = well fitted activation curve with a large enough effect; inconclusive = small, poorly fitted or top-dose-only effect;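 also: potency is read from the fitted curve at half-maximal effect; 0% is about no effect; scaled to a free AFC standard on each plate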
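Baseline compound fluorescence (AFC region, 405 nm ex/520 nm em) taken from the intercept of kinetic reads with 50 nM caspase-1 and 5 uM Ac-WEHD-AFC; normalized to an on-plate AFC standard curve; compounds titrated up to 57 uM.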
A488 autofl: compound fluoresces in the A488 spectral region; compound autofluorescence, A488 spectral region, dye equivalency; hits give high values; max dye equivalency, M; actives 0.1% (n = 59,000); active = above 10 nM dye equivalent; inconclusive = 1 to 10 nM; inactive = 1 nM or less; about half of its hits are not listed in these tables;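 also: highest value over a series up to 38 µM; compound alone in buffer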
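Read-out: relative fluorescence at 480/540 nm, expressed as Alexa 488 dye-equivalent concentration from a six-point A488 standard included per plate. Conditions: 100 mM Tris, pH 8.0; 15 min incubation, room temperature.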
Numbers without * were called inactive; i = inactive; ? = inconclusive; . = no result given; & = joins results of further samples; [ ] = remark or other dose.

The first 2 compounds, ahead of the listing:
Compound,TSHR ag,A488 autofl,A647 fluor,AID923,Resorufin autofl
COc1ccc(NC(=O)CSc2nc3ccccc3c(=O)n2-c2ccc3c(c2)OCO3)c(OC)c1,22.8%,i,1e-09,0.5%,i
COc1ccc(OCC(=O)Nc2ccc3c(c2)nc(CCN2CCOCC2)n3C)cc1,-0.9%,i,2.4e-09,0.6%,i

The whole of this part, from the first entry:
Compound,TSHR ag,A488 autofl,A647 fluor,AID923,Resorufin autofl
COc1ccc(NC(=O)CSc2nc3ccccc3c(=O)n2-c2ccc3c(c2)OCO3)c(OC)c1,22.8%,i,1e-09,0.5%,i
COc1ccc(OCC(=O)Nc2ccc3c(c2)nc(CCN2CCOCC2)n3C)cc1,-0.9%,i,2.4e-09,0.6%,i
Cc1csc(OCc2ccc(C#N)cc2)n1,-1.1%[11.4 µM],i,3.56e-08,-1.2%,i
CC(C)C(=O)N1CCN(c2ccccc2NC(=O)Cc2ccc(Cl)cc2)CC1,?,i,8.6e-09,-1.0%,i
Cc1cccc(OCCCC(=O)O)c1C,23.4%,i,1.9e-09,-0.4%,i
O=C(NCCCN1CCOCC1)c1cc(-c2ccc(O)cc2)on1,-0.5%,.,.,-0.5%,.
O=S(=O)(Cc1ccccc1)N1CCC(N2CCN(c3ccccc3)CC2)CC1,0.1%[11.4 µM],.,.,-0.2%,.
Cc1ccc2ccc(S(=O)(=O)n3nc(C)cc3C)cc2c1,?,.,.,-2.8%,.
CCCC(=O)N1CCN(c2ccc(NC(=O)c3ccccc3)cc2)CC1,-2.0%,i,1.5e-09,-0.8%,i
COc1ccc(C(=O)N2CCCC(c3nc(-c4ccc(OC)c(OC)c4)no3)C2)c(OC)c1 (configuration not stated),14.9%,i,2.09e-08,0.5%,i
COc1ccc(-c2noc(CSc3nnc(CCc4ccccc4)n3-c3ccccc3)n2)cc1OC,?,i,2.33e-08,2.6%,i
O=S(=O)(Nc1ccc(C(F)(F)F)cc1)c1cnc[nH]1,3.0%,i,1e-09,-0.2%,i
Cc1ccc(C(C(=O)NC(C)(C)C)N(C(=O)c2csnn2)c2cccc(F)c2)o1 (configuration not stated),-0.6%,i,1e-09,0.6%,i
COC(=O)CN(c1ccc(C)cc1)S(=O)(=O)c1ccc2c(c1)n(C)c(=O)c(=O)n2C,0.7%,i,9.6e-09,-1.0%,i
O=C(CN1CCN(S(=O)(=O)c2ccc(Cl)cc2)CC1)Nc1ccc2c(c1)OCO2,?,i,4.27e-08,0.3%,i
O=C(NC(=O)N1CCN(c2cccc(Cl)c2)CC1)c1ccccc1,-2.7%,i,2.8e-08,0.0%,i
CCN=C1SCC(=O)N1c1ccc(OC)cc1,-2.9%,i,1e-09,1.5%,i
CC(C)CCNC(=O)NC(=O)CSc1nnc2ccccn12,8.8%,i,1e-09,-0.4%,i
CNC(=O)[C@H](C)[C@@H]1C[C@@]1(C)[C@@H](NC(=O)OCc1ccccc1)c1ccccc1,16.0%,.,.,2.7%,.
CN(C)CC[C@H](c1ccc(Cl)cc1)c1ccccn1,?,i,9.6e-09&1e-09&2.4e-09,-2.6%[25.7 µM],i
C#CCOC(=O)c1ccccc1C(=O)N(CC)CC,.,i,1e-09,2.4%,i
CC(C)Oc1ccc(C(=O)Nc2ccc(N(C)C)cc2)cc1,-2.3%[11.4 µM],.,.,-0.8%,.
CCOC(=O)CN(C(=O)Cn1nnc2ccccc21)C(C(=O)NCCOC)c1ccccc1C (configuration not stated),6.2%,i,5.38e-08,3.8%,i
Cc1cc(N2CCN(c3nnnn3-c3ccccc3)CC2)n2ncnc2n1,3.4%,i,1.77e-08,1.1%,i
COc1ccc(NC(=O)c2ccc3c(c2)n(C)c(=O)n3C)cc1,2.1%,.,.,2.9%,.
O=C(c1ccco1)N1CCN(C(=O)C2(S(=O)(=O)c3ccc(Cl)cc3)CC2)CC1,8.3%,i,1e-09,0.4%,i
COc1ccc(OC)c(NC(=O)c2cc3ccccc3o2)c1,?,i,2.42e-08,2.6%,i
Cc1sc2c(c1C)c(=O)n(-c1ccccc1)c1nncn21,?,.,.,1.1%,.
O=C(Nc1nnc(-c2ccccc2Cl)o1)c1cccnc1,15.0%,i,9.7e-09,1.5%,i
C#CCCCO/N=C1/C[C@@H](O)[C@@H](O)[C@@H]2[C@@H]3C(=O)N(C[C@@H]4CCCO4)C(=O)[C@H]3CC[C@H]12,-2.2%[11.4 µM],.,.,-0.3%[11.5 µM],.
CCN(CC)CCNC(=O)c1ccc2c(c1)ncn2C1CCCCC1,7.2%,i,1e-09,0.4%,i
C=CCn1c(N)c(C(=O)N2CCN(C)CC2)sc1=S,-3.0%,i,4.35e-08,2.2%,i
O=C(CSc1ncnc2c1cnn2Cc1ccccc1)Nc1ccc2c(c1)OCCO2,?,i,1e-09,2.7%,i
CCN(CC)COC(=S)S,-6.5%[11.4 µM],i,4.2e-09,4.5%[11.5 µM],i
O=C(COc1ccc(F)cc1Br)N1CCc2ccccc21,6.4%,i,1e-09,-0.8%,i
COc1ccc(Cl)cc1C(=O)N1CCN=C1SC,5.3%,.,.,1.4%,.
Cn1cccc1Cc1nnc(SCC(N)=O)n1CCc1ccccc1,4.1%,.,.,-0.5%,.
O=S(=O)(NC1CCCCC1)c1ccc(Cl)s1,2.3%,i,1.3e-09,-1.5%,i
CCOc1ccc2nc(NC3=NCN(CC4CCCO4)CN3)nc(C)c2c1 (configuration not stated),.,i,1e-09,1.3%,i
c1ccc(Cn2nnc3c(N4CCCC4)ncnc32)cc1,?,i,2.7e-09,0.5%,i
COC(=O)N1CCC2(CCCN(Cc3cc(C(F)(F)F)cc(C(F)(F)F)c3)C2)CC1,-0.2%,i,5.1e-09,4.1%,i
Cn1cccc1Cc1nnc(SCC(=O)NCc2ccco2)n1CCc1ccccc1,-0.3%,i,4e-09,0.1%,i
O=C1CC(c2ccco2)CC(O)=C1C=NCC1CCNCC1 (configuration not stated),1.9%,.,.,5.9%,.
CCOc1ccc(N2C(=O)CC(N3CCC(NC(=O)Nc4ccccc4)CC3)C2=O)cc1 (configuration not stated),-1.3%,i,7.87e-08,1.2%,i
CCOC(=O)c1cc2c(=O)n3cccc(C)c3nc2n(Cc2ccccc2Cl)c1=N,-1.9%,i,3.19e-08,20.9%,i
O=C(C(c1ccccc1)c1ccccc1)N1CCOCC1,-2.0%,.,.,0.7%,.
CCOc1ccc(N2CC(C(=O)NCc3cccc(C)c3)CC2=O)cc1 (configuration not stated),2.9%,i,4.4e-09,0.6%,i
CC(Cc1ccccc1)C(=O)NCCc1c[nH]c2ccccc12 (configuration not stated),?,.,.,-0.5%,.
Cc1ccccc1C1CC(=O)NC2=C1C(=O)CCC2 (configuration not stated),6.7%,i,2.17e-08,-3.4%,i
O=c1c2ccccc2nnn1CSc1nnc(COc2ccc(Cl)cc2)n1Cc1ccco1,.,i,4.3e-09,-0.8%,i
CC(=O)c1ccc(NC2c3ncccc3C(=O)N2Cc2ccc(F)cc2)cc1 (configuration not stated),2.1%,i,3.2e-09,0.5%,i
CCOC(=O)C1(C(=O)OCC)C(c2ccccc2)CC(O)N1C(C)=O (configuration not stated),.,i,8.74e-08,.,i
COc1cc(N2CCOCC2)ncn1,-2.2%,i,1e-09,0.1%,i
O=C1C2C3CCCC3=C3CCCC3C2C(=O)N1c1cccc(Cl)c1 (configuration not stated),?,.,.,0.1%,.
CN(C)c1ccc(C2OC(=O)C3(CCCC3)C(=O)C2(C)C)cc1 (configuration not stated),6.0%,i,1e-09,3.1%,i
O=C(O)c1cc(-c2ccccn2)n[nH]1,18.3%,i,1e-09,3.7%,i
CN(C)CCC(c1ccccc1)c1ccccn1 (configuration not stated),?,.,.,1.2%&0.8%,.
C=CCn1c(N2CCCCCC2)nc2c1c(=O)n(C)c(=O)n2C,1.4%,i,1e-09,0.4%,i
O=C(Nc1cccc(F)c1)N1CC[C@@]2(CCCN(C(=O)c3csnn3)C2)C1,8.9%,i,2.01e-08,0.3%,i
O=C(CSc1nnc(Cc2ccccc2)o1)N1CCCc2ccccc21,.,i,3.48e-08,1.0%,i

The list goes on.
Compound,TSHR ag,A488 autofl,A647 fluor,AID923,Resorufin autofl
Cc1ccc(-n2c3c(cc(C(=O)NC4CCSC4=O)c2=O)C(=O)CC(C)(C)C3)cc1 (configuration not stated),-2.3%[11.4 µM],.,.,0.8%,.
CCOc1ccc(OCC)c(NC(=O)CN2CCC(NC(=O)c3cccc(F)c3)CC2)c1,1.8%,i,2.33e-08,0.4%,i
Cc1ccc(S(=O)(=O)n2c3ccccc3c3nnc(C(=O)c4ccccc4)nc32)cc1,-16.4%[11.4 µM],.,.,0.7%[11.5 µM],.
CCOC(=O)c1[nH]c2ccc(Br)cc2c1NC(=O)CCN1CCCCC1,9.1%,i,2.9e-09,-0.5%,i
NC(=O)[C@@H]1CCCNC1,1.5%[11.4 µM],i,4.67e-08,0.8%[11.5 µM],i
O=C(NCc1cccnc1)C1CCN(S(=O)(=O)c2cccnc2)CC1,?,i,4.15e-08,0.7%,i
Cc1ccc(C2c3c(oc4cc(C)c(C)cc4c3=O)C(=O)N2CCCN2CCOCC2)cc1 (configuration not stated),3.8%,.,.,-1.4%,.
COc1ccc(C(C(=O)NC2CCCC2)N2CCc3ccccc32)cc1 (configuration not stated),12.5%,.,.,-1.3%,.
CN(C)CCNc1nc(-c2ccco2)c2c(c1C#N)CC(C)(C)OC2,.,i,1e-09,.,i
COc1ccccc1Oc1ccc(S(=O)(=O)N2CCCC2)cc1,.,i,1.86e-08,-0.9%,i
CCOc1ccccc1N(C(=O)CNC(=O)c1ccco1)C(C(=O)NC1CCCC1)c1cccnc1 (configuration not stated),?,i,1e-09,-1.0%,i
CC(=O)N1C2(C=CC1(C)C(=O)NCc1cc(F)cc(C(F)(F)F)c1)CCCCC2 (configuration not stated),-1.5%,.,.,0.5%,.
O=C(Cn1cc(C(=O)COc2ccccc2)c2ccccc21)NCc1ccco1,.,i,1.13e-08,0.5%,i
CC1=CS/C(=C(/C#N)C(=O)N2CCCCC2)N1c1ccccc1,-4.5%,.,.,-0.4%,.
COc1ccc(/C(O)=C2/C(=O)C(=O)N(CCN(C)C)C2c2ccc(C)cc2)cc1Cl (configuration not stated),0.1%,i,1e-09,0.7%,i
CCCCCCN(C(=O)CCCCCN1C(=O)NC(c2ccc(-c3ccccc3)cc2)C(C(=O)OCc2ccccc2)=C1C)C(C)C(=O)NCCCC (configuration not stated),3.9%,.,.,8.8%,.
CS(=O)(=O)N1CCc2cc(C(=O)O)ccc21,-4.3%,i,1.42e-08,0.0%,i
O=C(Nc1ccc2c(c1)OCO2)C1CCN(S(=O)(=O)c2cccs2)CC1,-4.5%,i,3.7e-09,-0.3%,i
CC(C)(C)NC(=O)C(Cc1ccccc1)NS(=O)(=O)c1ccc2c(c1)CCC(=O)N2 (configuration not stated),-12.4%,i,3.6e-09,-0.2%,i
N#CC1=C2SCN(Cc3ccco3)CN2C(=O)CC1c1c(F)cccc1Cl (configuration not stated),-12.1%,.,.,4.8%,.
O=C(CSc1nnc(-c2ccccc2)n1Cc1ccco1)Nc1ccc2c(c1)OCCO2,20µM*,i,4.4e-09,-0.9%,i
CCn1c(N)c(C(=O)N2CCOCC2)sc1=S,2.4%,i,1.08e-08,-0.7%,i
COC(=O)[C@H]1C[C@@H]1[C@H](NC(=O)c1ccccc1)c1ccccc1,14.4%,.,.,-1.5%,.
Cc1cc(=O)oc2cc(OCCSCCN3CCOCC3)ccc12,.,i,1e-09,.,i

These rows are one share of the data (hit frequency here may not be typical).
